MT1-MMP act inh – MT1-MMP (human) activation inhibition; 360,000 compounds, 0.061% hits; HT1080 RFP-PRO-GFP cells, GFP/RFP ratio fluorescence, overnight; percent of plate control window, DMSO zero; AID 651647; GFP/RFP ratio change, % at 20 µM; P50281;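 active means GFP/RFP ratio change of at least 30% with cell ATP level not reduced by more than half and red fluorescence within 50% of control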; further: strong numbers were not always called active
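Assay system: HT1080 RFP-PRO-GFP cells | Dosing: 20 µM single dose, 1% DMSO | Incubation: Cells overnight before dosing, compound overnight, 37 °C, 5% CO2 | Evaluation: GFP/RFP fluorescence ratio | Control set: DMSO-only wells and HT1080 RFP-L50D-GFP cell wells as references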
eIF4H FP inh – inhibitors of RNA binding by human eIF4H; Q15056; eIF4H fluorescence polarization binding assay; inhibition, % at 35 µM; 290,000 compounds, 0.94% hits;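 active means 50% or more with normal probe brightness, or confirmed in later tests; inconclusive means above 50% with abnormal brightness, or retests that disagree; inactive means below 50% or failed in later tests; about a fifth of its hits are not listed in these tables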;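 further: calls also rest on retests at 20 µM and on dose response follow-up; 0% = protein and probe with vehicle and 100% = probe without protein; strong numbers were not always called active; many hits fall short of the cut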
HIV Env fusion – HIV envelope-mediated fusion inhibition; 360,000 compounds, 1.1% hits; HeLa-JRFL Env/CEM21 cell fusion, luciferase; inhibition, % at 12.3 µM; AID 651610;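 active means mean replicate inhibition score of at least 50 and every replicate individually at or above 50; inconclusive means only one of the two criteria met; inactive means mean below 50 and not all replicates reaching 50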;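 further: 0% = plate neutral controls and 100% = maraviroc near 300 nM; one replicate is shown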
Rce1 inh – yeast Ras-converting enzyme inhibition; 290,000 compounds, 0.27% hits; AID 2563; yeast membranes, quenched prenylated peptide cleavage fluorescence; Q03530; calls only;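 active means fall in fluorescence gain of 50% or more versus controls, with final raw signal at or below 3038400; inconclusive means same 50% fall but final raw signal above 3038400; inactive means fall in fluorescence gain under 50%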;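 further: plate controls were neutral control wells for no effect and wells lacking membranes for full effect; tested at 10 µM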
Target sequence (Q03530 whole entry, looked up): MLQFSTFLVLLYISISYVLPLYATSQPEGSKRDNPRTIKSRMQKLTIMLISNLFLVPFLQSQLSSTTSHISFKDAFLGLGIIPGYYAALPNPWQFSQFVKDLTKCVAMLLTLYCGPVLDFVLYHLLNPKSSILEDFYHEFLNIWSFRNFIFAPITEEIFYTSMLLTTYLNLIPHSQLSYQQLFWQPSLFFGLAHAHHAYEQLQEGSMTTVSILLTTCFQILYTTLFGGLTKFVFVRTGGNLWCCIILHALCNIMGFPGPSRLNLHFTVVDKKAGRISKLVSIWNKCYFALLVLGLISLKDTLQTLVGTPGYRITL
PABP polyA inh – PABP-poly(A) binding inhibition; P11940; PABP-poly(A) RNA binding, fluorescence polarization; inhibition, % at 35 µM; 290,000 compounds, 1% hits;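 active means 50% or more with normal probe brightness, or confirmed in later tests; inconclusive means above 50% with abnormal brightness, or retests that disagree; inactive means below 50% or failed in later tests; about a fifth of its hits are not listed in these tables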;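 further: calls also rest on retests at 20 µM and on dose response follow-up; controls were probe without protein and protein plus probe with vehicle; some compounds called inactive have numbers as strong as hits; many hits fall short of the cut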
Target sequence (P11940 whole entry, looked up): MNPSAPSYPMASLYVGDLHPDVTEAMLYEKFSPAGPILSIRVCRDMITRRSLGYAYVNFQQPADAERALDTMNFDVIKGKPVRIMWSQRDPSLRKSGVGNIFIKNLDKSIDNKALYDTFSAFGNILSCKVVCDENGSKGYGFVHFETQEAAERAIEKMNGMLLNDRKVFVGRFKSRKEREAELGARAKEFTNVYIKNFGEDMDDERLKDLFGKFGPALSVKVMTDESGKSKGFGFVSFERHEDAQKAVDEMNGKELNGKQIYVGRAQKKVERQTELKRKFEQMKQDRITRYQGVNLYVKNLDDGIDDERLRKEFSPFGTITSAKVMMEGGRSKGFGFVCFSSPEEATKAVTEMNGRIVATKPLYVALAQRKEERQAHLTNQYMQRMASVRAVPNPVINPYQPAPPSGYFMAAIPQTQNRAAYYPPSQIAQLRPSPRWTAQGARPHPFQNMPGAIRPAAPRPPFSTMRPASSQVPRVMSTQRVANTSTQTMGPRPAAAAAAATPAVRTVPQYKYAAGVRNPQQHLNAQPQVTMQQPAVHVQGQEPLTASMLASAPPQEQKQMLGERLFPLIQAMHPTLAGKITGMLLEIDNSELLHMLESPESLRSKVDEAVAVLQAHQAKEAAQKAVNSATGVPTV
CSC inhib – cancer stem cell inhibition; inhibition, % at 7.5 µM; cancer stem cell-like cells viability, luminescence; 300,000 compounds, 1.1% hits;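 active means mean at 75% or more and at least half the replicates too; inconclusive means mean and replicates disagree; tested in HMLE shEcad cells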;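 further: 0% = median of negative and 100% = median of positive control wells; the first replicate is given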
Yeast UUG start – yeast start codon fidelity modulation; AID 602363; 350,000 compounds, 0.13% hits; activity score, % at 18.7 µM; S. cerevisiae UUG-firefly luciferase reporter, luminescence/redox ratio;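 active means replicate mean at a twofold rise or more, about +100% in these data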;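 further: firefly luciferase made from a UUG start codon reports start codon fidelity; reporter light over untreated wells divided by growth signal over untreated wells; some hits fall short of that in this replicate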
eIF4H FP inh retest – second read-out of eIF4H FP inh, no call of its own (marks repeat the call); inhibition, %; compound at 20 µM; confirmation average;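 mean of two retest wells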
PABP polyA inh retest – second read-out of PABP polyA inh, no call of its own (marks repeat the call); inhibition, %; compound at 20 µM; confirmation repeats;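 mean of two retest wells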
MT1-MMP act inh RFP – also measured in MT1-MMP act inh; calls as there; RFP signal change, %; measured here: RFP expression control read;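 0 = vehicle wells; hits needed this value within 50% of zero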
Numbers without * were called inactive; i = inactive; ? = inconclusive; . = no result given.

SMILES | MT1-MMP act inh | MT1-MMP act inh RFP | eIF4H FP inh | HIV Env fusion | Rce1 inh | PABP polyA inh | CSC inhib | Yeast UUG start | others
COc1ccc(N2C(=NC(=O)CCCc3ccccc3)SC3CS(=O)(=O)CC32)cc1 (stereo unspecified) | -2 | 3 | -4 | 29 | i | 4 | -1 | 16
C=CCC(NCc1ccccc1)c1ccco1 (stereo unspecified) | -5 | -2 | 0 | . | i | -6 | -3 | -14
COCc1cccc(-c2csc(C(N)c3ccc(F)c(F)c3)n2)c1 (stereo unspecified) | -1 | -5 | . | 24 | . | . | . | -4
NNC(=O)c1cc(O)c(O)c(O)c1 | -4 | 1 | 84 | -5 | i | -8 | 9 | 1 | eIF4H FP inh retest=34;PABP polyA inh retest=19
Cn1c(NC(=O)c2ccc(Cl)s2)cc(=O)n(C)c1=O | 0 | 1 | -4 | -10 | i | -2 | -6 | -14
O=S(=O)(NC1CC1)c1ccc(Cl)cc1F | 2 | 0 | 1 | 7 | . | 6 | -5 | 0
CCCC(C)Sc1nc2c([nH]1)c(=S)n(C)c(=O)n2C (stereo unspecified) | 7 | -5 | . | -36 | . | . | . | -16
CCCCC(CC)Cn1c(N)c(C#N)c2nc3ccccc3nc21 (stereo unspecified) | -16 | 5 | 68* | . | i | 64* | 31 | -18
CCOC(=O)N1CCC(Nc2ncnc3c2cnn3-c2ccc(C)cc2C)CC1 | -4 | -25 | -5 | 32 | i | -12 | -6 | 8
CCOC(=O)/C=C1/SCC(=O)N1Cc1ccc(Br)cc1 | 0 | -1 | . | 40 | . | . | . | -8
CC1CCC/C(=C(\C#N)c2nc(-c3cc4ccccc4oc3=O)cs2)C1 (stereo unspecified) | 5 | -5 | 8 | . | i | 0 | 52 | .
CCN(CC)S(=O)(=O)c1ccc2oc(C(=O)NC3CC3)c(C)c2c1 | 3 | -4 | 6 | -54 | i | 0 | -4 | 10
COCCN(CCNC(=O)c1ccc(NC2=NC3CS(=O)(=O)CC3S2)cc1)Cc1ccco1 (stereo unspecified) | -1 | -2 | -3 | -21 | i | -4 | -10 | -26
Cn1nc(-c2ccc(OCC(N)=O)cc2)c2ccccc2c1=O | 6 | 7 | -1 | -183 | i | 6 | -5 | .
N#C/C(=C\c1ccc(F)cc1)c1nc(-c2ccco2)cs1 | 3 | 10 | ? | -23 | i | -8 | -1 | .
CC[C@]12c3[nH]c4ccc(Cl)cc4c3CCN1C(=O)[C@@H](CC(=O)NC(C)(C)C)C[C@@H]2C(=O)N1CCN(C(=O)c2ccco2)CC1 | -3 | -4 | . | -7 | . | . | . | -10
Fc1ccc(-c2ccc(Nc3cccc(F)c3)nn2)cc1 | -1 | 3 | -6 | -61 | i | 5 | 15 | -6
CCOC(=O)CSc1n[nH]c(NS(=O)(=O)c2ccccc2C(F)(F)F)n1 | -2 | 2 | -9 | 22 | i | -2 | -8 | -6
O=C(CC1C(=O)NCCN1Cc1ccccc1F)NC1CCCCCC1 (stereo unspecified) | 2 | 7 | -5 | . | . | -4 | -11 | -10
Cc1ccc2oc(C(=O)Nc3ccc(S(=O)(=O)Nc4onc(C)c4C)cc3)c(C)c2c1 | 0 | 1 | -1 | 13 | i | -2 | -3 | 10
COc1ccc(CNC(=O)COC(=O)c2ccc(F)c(S(=O)(=O)N3CCOCC3)c2)cc1 | 2 | 3 | . | -33 | . | . | 10 | .
COC(=O)CN(n1cnnc1)S(=O)(=O)c1ccccc1 | -3 | 0 | -5 | -69 | i | 0 | -5 | -8
O=C(O)c1ccc2c(c1)N(Cc1ccc(F)cc1)C(=O)c1ccccc1S2 | 0 | 2 | 6 | -1 | i | -10 | -9 | -8
CCOC(=O)N1CCN(C(=O)CN2C(=O)NC(c3ccccc3)(c3ccccc3)C2=O)CC1 | -1 | 0 | -4 | -5 | i | 5 | -2 | 10
Cc1c(-c2ccccc2)sc(N)c1C(=O)N1CCOCC1 | -1 | 3 | -4 | 7 | i | 0 | 0 | -6
Later entries
SMILES | MT1-MMP act inh | MT1-MMP act inh RFP | eIF4H FP inh | HIV Env fusion | Rce1 inh | PABP polyA inh | CSC inhib | Yeast UUG start | others
c1ccc2c(c1)ccc1nnc(SCc3ccc4c(c3)OCCO4)n12 | 1 | 2 | -8 | 5 | i | -3 | -11 | -10
CC(=O)Nc1cccc(C(=O)OCN2C(=O)c3ccccc3C2=O)c1 | 1 | 2 | 6 | 1 | i | 19 | -15 | -7
O=C(Nc1ccc(Cl)c(-c2nc3ccccc3[nH]2)c1)c1ccc2c(c1)OCO2 | 14 | -2 | -5 | -10 | i | 47 | 0 | -10
COc1ccc(CCNC(=O)CNS(=O)(=O)c2ccc(F)c(Cl)c2)cc1OC | -2 | 1 | -1 | 4 | i | 10 | 6 | -14
Cc1nn(Cc2ccc(Cl)cc2)c(Cl)c1/C=N/NC(=O)c1cccnc1 | -3 | -10 | -7 | 17 | i | -4 | 5 | .
O=C(Nc1ccc(NC(=O)c2cccs2)cc1)c1ccco1 | 2 | 2 | -8 | -120 | i | -3 | -10 | -11
CCOC(=O)CNC(=O)N1CCCC(CCC(=O)NCc2ccc(F)c(F)c2)C1 (stereo unspecified) | 0 | 0 | 0 | 15 | i | 1 | -14 | 5
CCC(=O)NC(c1cccc([N+](=O)[O-])c1)c1c(OC(C)=O)ccc2ccccc12 (stereo unspecified) | 0 | -7 | 2 | . | i | 1 | -8 | 4
O=C(COC(=O)CCc1nc2ccccc2c(=O)[nH]1)Nc1ccc(N2CCOCC2)cc1 | 0 | 2 | -4 | -5 | i | -1 | -11 | 3
COc1cccc(CNC(=O)COC(=O)CN2C(=O)NC3(CCCCC3C)C2=O)c1 (stereo unspecified) | 1 | 2 | . | -3 | . | . | -9 | 2
COC(C/C=C\[C@H](O)COCc1ccccc1)OC | 4 | 4 | . | 19 | i | . | -13 | -16
CCOC(=O)CC1(CC(=O)OCC)NC(=O)c2c(C)sc(C(=O)OCC)c2N1 | 1 | 0 | -7 | . | i | -6 | -2 | -5
Cc1cc(C)cc(-n2cc[nH]c2=S)c1 | -3 | -2 | 0 | -13 | i | -11 | -3 | -39
COc1ccc(-c2nc(N)ncc2-c2ccccc2)c(O)c1 | -1 | -3 | -13 | 4 | i | 9 | -6 | .
CCN(C(=S)NC(=O)C1CCCC1)C1CCCCC1 | 0 | 1 | 8 | 4 | i | 4 | -2 | .
Cc1nn(-c2ccccc2)c(C)c1/C=N/N1CCN(c2ccccc2)CC1 | 4 | -1 | 9 | . | i | -7 | -11 | -9
Cc1ccc(/C=N/N=C2/NC(=O)C(CC(=O)Nc3ccccc3)S2)o1 (stereo unspecified) | 5 | 2 | 2 | -2 | i | 7 | -24 | -16
CCCCNC(=O)c1nn2cc(Br)cnc2c1Br | . | . | 20 | 11 | i | -1 | -6 | .
CCCCn1c(N)c(N(CC(C)C)C(=O)c2ccc(S(=O)(=O)N3CCCCCC3)cc2)c(=O)[nH]c1=O | 0 | -1 | . | 15 | i | . | . | -9
CN(C)C1(CN=Cc2cc(Cl)cc([N+](=O)[O-])c2O)CCCCC1 | 4 | 0 | 4 | 5 | i | 16 | 7 | -19
COc1ccc(CCNC(=O)c2ccc(NC(=O)CC3SC(N4CCCC4)=NC3=O)cc2)cc1 (stereo unspecified) | 0 | 2 | . | -25 | i | . | -10 | 17
Cc1cc(NC(=O)CN2CC(C)OC(C)C2)n(-c2nc3ccccc3s2)n1 (stereo unspecified) | 1 | -2 | -13 | . | i | -2 | 0 | -6
CCCCn1c(N)c(N(CC(C)C)C(=O)C2CCN(S(=O)(=O)c3ccc(C)cc3C)CC2)c(=O)[nH]c1=O | 5 | -3 | . | -9 | i | . | 1 | .
CC(C(=O)NCc1ccccc1Cl)N1C(=O)c2ccccc2C1=O (stereo unspecified) | 0 | 2 | -2 | -3 | i | -2 | -2 | -11
COc1ccc(S(=O)(=O)N2CCCC(C(=O)NCc3ccccc3)C2)cc1 (stereo unspecified) | -6 | -9 | 1 | 0 | i | 6 | . | -15
Continued:
SMILES | MT1-MMP act inh | MT1-MMP act inh RFP | eIF4H FP inh | HIV Env fusion | Rce1 inh | PABP polyA inh | CSC inhib | Yeast UUG start | others
COc1ccccc1Oc1ccc(S(=O)(=O)N2CCCCC2C)cc1 (stereo unspecified) | 1 | -2 | -1 | -1 | i | 7 | 18 | -7
COc1ccc(-c2csc(Cc3nc(O)cs3)n2)cc1 | -7 | 2 | 20* | -63 | i | 70* | 3 | . | eIF4H FP inh retest=83*;PABP polyA inh retest=52*
COc1cccc(-c2nc(Oc3cccc(C)c3C)c3ccccc3n2)c1O | 3 | -8 | 14 | -10 | i | -6 | 9 | .
Cc1c(Cl)c(-c2n[nH]c(=S)n2CC(C)C)nn1C | 5 | 3 | -2 | . | i | 3 | 4 | 11
Cc1ccc(C)c(N2CCN(CCCNC(=O)CCC(=O)N3CCOc4ccc(Cl)cc43)CC2)c1 | . | . | -3 | 26 | i | 2 | 44 | .
COc1cccc(/C=N/n2c(-c3n[nH]c4c3CCC4)n[nH]c2=S)c1OC | 3 | 0 | -8 | -18 | . | -9 | 3 | .
CC(=O)c1ccc(NC(=O)CN2C(=O)/C(=C/C(C)=C/c3ccccc3)SC2=S)cc1 | 3 | 3 | -8 | 1 | . | 9 | . | -3
Cc1ccc(S(=O)(=O)N2[C@H](c3ccccc3)CC(=O)[C@@H]3CN(S(=O)(=O)c4ccccc4C)[C@H](c4ccccc4)C[C@@H]32)cc1 | 8 | -1 | . | 15 | . | . | . | -6
Clc1ccc(SCCOCCN2CCCCC2)cc1 | -4 | -4 | -2 | 5 | i | 15 | 36 | -15
Cc1ccccc1C(=O)Nc1cccc(C#N)c1 | 2 | 1 | -1 | -64 | i | 6 | 4 | -13
COC(CNC(=O)c1ccc2c(c1)ncn2-c1ccc(F)cc1F)OC | 0 | 2 | -4 | 0 | i | -2 | -8 | -13
COCCCNC(=O)c1sc2ncn(CC(=O)Nc3ccc(C)c(Cl)c3)c(=O)c2c1C | 3 | -3 | -5 | 9 | i | -8 | -20 | .
NC(N)=NS(=O)(=O)c1ccc(N/C=C\C(=O)c2ccncc2)cc1 | 9 | 2 | -15 | 17 | i | 3 | 2 | -12
O=C1CC(c2ccncc2)c2cc3c(cc2N1)OCCO3 (stereo unspecified) | 1 | 4 | -2 | . | i | 1 | -9 | -8
COC(=O)c1ccccc1NC(=O)C1CC(=O)N(C2CCCCC2)C1 (stereo unspecified) | -2 | 1 | -3 | -23 | i | -4 | -2 | -26
Cc1ccc(N2CC(C(=O)N3CCCCC3)CC2=O)cc1C (stereo unspecified) | -1 | 5 | -7 | 14 | i | 11 | -1 | 2
Cc1ccccc1NC(=O)C1CCN(c2cnccn2)CC1 | 1 | 5 | 2 | 2 | i | -6 | -7 | -9
COc1ccccc1-c1cnc(C(O)c2ccc(CN3CCCC3)cc2)[nH]1 (stereo unspecified) | 4 | 6 | . | 8 | . | . | . | -22
CCCc1nc2c(c(=O)c3ccccc3n2C)c(=O)n1-c1ccc(F)cc1 | -3 | -2 | -3 | -117 | i | -2 | -7 | .
CCOC(=O)CSc1nc(=O)n2ccc(C)cc2n1 | 0 | 0 | 4 | -23 | i | -3 | -8 | .
